From PubChem BioAssay
Mtb H37Rv: Confirmatory growth inhibition assay against Mycobacterium tuberculosis H37Rv, potency (AID 1949). 1.6% of 100,000 active. most inactive calls were filed without a number and no value below 0 was filed. inhibition, % at 10 µg/mL, or IC50 in µg/mL where a hit was titrated;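 active means confirmed in a dose series; inconclusive means about 50% or more but not retested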;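 further: bacteria grown 7 days with compound before Alamar blue readout; 0% = untreated bacteria and 100% = reference antibiotic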
An asterisk follows results filed as active; i = inactive; ? = inconclusive.

Start of the listing, in advance:
| canonical_smiles | Mtb H37Rv |
| --- | --- |
| COc1ccc(OC(C)C(=O)Nc2ccc(S(=O)(=O)Nc3onc(C)c3C)cc2)cc1 (stereo not given) | i |
| N#CC1=C(SCc2ccc(Br)cc2)NC(=O)C(C#N)C12CCCCC2 (stereo not given) | i |

The whole of this part, previewed entries included:
| canonical_smiles | Mtb H37Rv |
| --- | --- |
| COc1ccc(OC(C)C(=O)Nc2ccc(S(=O)(=O)Nc3onc(C)c3C)cc2)cc1 (stereo not given) | i |
| N#CC1=C(SCc2ccc(Br)cc2)NC(=O)C(C#N)C12CCCCC2 (stereo not given) | i |
| CS(C)=C1C(=O)NC(=O)N(c2ccc(F)cc2)C1=O | i |
| CSc1ccccc1NC(=O)c1ccc(F)cc1 | 1% |
| COc1cccc(NC(=S)Nc2c(C)n(C)n(-c3ccccc3)c2=O)c1 | i |
| O=C(Oc1ccc(-c2ccccc2)nn1)c1ccco1 | i |
| Cc1cc(SCC(=O)Nc2ccc(F)cc2)nc2ccc(F)cc12 | 2% |
| COc1ccc(CCNC(=O)C2CC(=O)N(c3ccc(Br)cc3)C2)cc1 (stereo not given) | i |
| O=C(CN(c1ccc(Cl)c(C(F)(F)F)c1)S(=O)(=O)c1ccccc1)NC1CC1 | i |
| CCOc1cc(-c2nc(-c3ccc(C)nc3OC)no2)cc(OCC)c1OCC | i |
| CCOc1cc(Cl)c(S(=O)(=O)Nc2ccccn2)cc1Cl | i |
| O=C(CSc1nnc(-c2cccnc2)n1-c1ccccc1)Nc1ccc(Cl)c(Cl)c1 | i |
| CCOc1ccc(C(=O)Nc2ccc3oc(=O)ccc3c2)cc1Cl | i |
| O=C(O)c1ccc(CNC(=S)Nc2ccc([N+](=O)[O-])cc2)cc1 | i |
| COc1ccc(S(=O)(=O)NCCSCc2ccccc2C)cc1OC | i |
| Cc1cc(OCC(=O)Nc2ccccc2-c2nc3ccccc3s2)ccc1Cl | i |
| COc1ccc(C(=S)N2CCCC2)cc1C | i |
| Cc1ccc2cccc(S(=O)(=O)NC3CCS(=O)(=O)C3)c2n1 (stereo not given) | 1% |
| COC(C(=O)Nc1ccc(Cl)c(Cl)c1)c1ccccc1 (stereo not given) | i |
| COc1ccc(S(=O)(=O)Nc2c(C)n(C)n(-c3ccccc3)c2=O)cc1C(=O)O | i |
| Cc1ccc(C(=O)Nc2ccc(C3CC3(Cl)Cl)cc2)cc1 (stereo not given) | i |
| c1ccc(Nc2ccc(Nc3ncnc4ccccc34)cc2)cc1 | 3% |
| CCOC(=O)C(Cc1ccc(OC)cc1)Sc1nc2ccccc2[nH]1 (stereo not given) | i |
| COc1cccc(OC)c1C(=O)Nc1ccc(I)cc1F | 8% |
| COc1ccc(C(=O)NCC(=O)OCc2ccc(Cl)cc2Cl)cc1 | i |
| O=C(NCc1ccco1)c1ccc(S(=O)(=O)N2CCOCC2)cc1 | 2% |
| Fc1ccccc1-c1nc(-c2cccnc2)no1 | i |
| COc1ccc(NC(=S)Nc2cc(C)cc(C)c2)cc1 | 12% |
| O=C(Nc1ccc(F)cc1)c1cn(-c2ccccc2)nc1-c1ccc([N+](=O)[O-])cc1 | 1% |
| Cc1cc(=O)[nH]c(SCC(=O)Nc2c(C)cccc2C)n1 | i |
| CC(C)(C)c1ccc(OCCn2c(CO)nc3ccccc32)cc1 | 29% |
| N#Cc1c(C(F)(F)F)cc(-c2ccncc2)nc1SCC(=O)Nc1nccs1 | i |
| COc1cccc2cc(C(=O)NCc3ccco3)c(=O)oc12 | 8% |
| CCN(CC)S(=O)(=O)c1cccc(C(=O)N2CC(O)CC2C(=O)O)c1 (stereo not given) | 0% |
| CCCN=C(NS(=O)(=O)c1cccs1)c1ccccc1 | i |
| Cc1occc1C(=O)Nc1ccc(S(=O)(=O)Nc2nccs2)cc1 | i |
| Cc1cccc2c1N(CCCOc1ccc(Cl)cc1Cl)C(=O)C2=O | i |
| Fc1ccc(COc2ccc3ccccc3c2CNc2nn[nH]n2)cc1 | 11% |
| Cc1ccc(N(CC(=O)N2CCCC2)S(C)(=O)=O)c(C)c1 | i |
| Cc1ccnc(NC(=O)c2oc3c(c2C)C(=O)CC(C)(C)C3)c1 | i |
| CNc1nc(N)c(C(=O)c2ccccc2)s1 | i |
| CCCCOC(=O)Nc1nnc(SCCOc2ccc(C)cc2)s1 | i |
| COC(=O)C(C)Oc1cccc2c1ccc1c3c(c(=O)oc12)CCCC3 (stereo not given) | i |
| Cc1ccc(OCC(=O)Nc2ccc3c(c2)C(=O)NC3=O)cc1C | i |
| O=C(Nc1cc2nn(-c3ccccc3)nc2cc1Cl)c1cccnc1 | i |
| COc1ccc(N(CC(=O)Nc2ccc(CC#N)cc2)S(=O)(=O)c2ccc(C)cc2)c(OC)c1 | i |
| COc1ccc(C(=O)Nc2ccc(Cl)cc2C(=O)NCCN2CCOCC2)cc1 | i |
| CCN(CC)c1ccc(Nc2nc(-c3ccc(O)cc3O)cs2)cc1 | ? |
| COc1ccc(S(=O)(=O)N(CC(=O)Nc2c(C)cccc2C)c2ccccc2)cc1OC | i |
| COc1ccc(CSc2ncn[nH]2)cc1 | i |
| O=C(c1ccc(S(=O)(=O)N2CCOCC2)cc1)N1CCc2ccccc2C1 | i |
| Cc1ccccc1Nc1nc(-c2cc3cc(Cl)ccc3oc2=O)cs1 | i |
| Cn1c(SCc2ccccc2Br)nnc1-c1ccc([N+](=O)[O-])cc1 | 0% |
| COC(=O)c1cc(Br)cc([N+](=O)[O-])c1O | i |
| CC1CCc2c(sc3ncn4c(C(C)C)nnc4c23)C1 (stereo not given) | 1% |
| COc1ccc(S(=O)(=O)N2CCc3ccccc3C2)cc1C(=O)O | i |
| COc1ccc(-c2n[nH]c(=S)n2C)cc1OC | i |
| O=Cc1ccccc1OCC(=O)NCc1ccccc1 | i |
| O=C(Cn1nnc(-c2ccc(Cl)cc2)n1)N1CCOCC1 | i |
| Cc1ccc(NC(=O)c2ccccc2N(C)S(C)(=O)=O)cc1C | i |

Continued.
| canonical_smiles | Mtb H37Rv |
| --- | --- |
| Cc1cc(OCC(O)CN(CCO)Cc2ccccc2)cc(C)c1Cl (stereo not given) | 41% |
| COC(=O)c1ccc(NC(=O)c2cc(Br)ccc2OC)cc1 | 5% |
| O=C(CSCc1c(Cl)cccc1Cl)NCc1ccco1 | 5% |
| O=C(Nc1ccccc1Cl)c1cc([N+](=O)[O-])ccc1O | 7.5µg/mL* |
| CCCSc1nnc(NC(=O)c2sc3nc4c(cc3c2N)CC(CC)CC4)s1 (stereo not given) | i |
| CCOC(=O)C1CCN(S(=O)(=O)Cc2ccccc2)CC1 | i |
| O=C(NCc1ccc(F)cc1)C(=O)Nc1cccc(C(F)(F)F)c1 | i |
| COc1ccccc1N1CCN(C(=O)CS(=O)(=O)Cc2ccccc2)CC1 | i |
| Cc1c(Cl)cccc1NC(=S)NC(=O)c1cccc(OC(C)C)c1 | i |
| COc1ccc(C(C)NC=O)c(OC)c1 (stereo not given) | i |
| CCN1CCN(c2ccc(NC(=O)COc3ccc(Br)cc3)cc2Cl)CC1 | 12% |
| OC(COc1ccc2cc(Br)ccc2c1)Cn1cnc2ccccc21 (stereo not given) | ? |
| Cc1cc(C)c(NS(=O)(=O)c2cccc3ccccc23)c(C)c1 | i |
| Cc1cc(I)ccc1NC(=O)CN(c1ccc(Cl)c(Cl)c1)S(C)(=O)=O | i |
| COc1cc([N+](=O)[O-])ccc1NC(=O)CCC1CCCCC1 | i |
| Cc1cccc(-c2noc(COc3ccccc3Cl)n2)c1 | i |
| CCC(=O)Nc1cc(C(=O)OCc2ccccc2F)ccc1C | 1% |
| CC12CCC(C(=O)Nc3ccc(Br)cc3)(OC1=O)C2(C)C (stereo not given) | i |
| Cn1ncc(C#N)c1NC(=O)c1cccc(Br)c1 | i |
| c1cncc(CNCc2ccc3c(c2)OCO3)c1 | i |
| CC(=O)OC(C(=O)n1nc(C)cc1C)c1ccccc1 (stereo not given) | 1% |
| Cc1ccc(-c2nc(N)n(C(=O)CCc3ccccc3)n2)cc1 | 0% |
| O=C(NCc1ccc(Cl)cc1)C1CCN(C(=O)c2ccc([N+](=O)[O-])cc2)CC1 | i |
| Cc1cccc(N2C(=O)C(Cl)=C(Nc3ccc(F)cc3)C2=O)c1C | i |

Some of these compounds in order of length of the SMILES, low to high:
| canonical_smiles | Mtb H37Rv |
| --- | --- |
| CC(=O)OC(C(=O)n1nc(C)cc1C)c1ccccc1 (stereo not given) | 1% |
| Cc1ccc(-c2nc(N)n(C(=O)CCc3ccccc3)n2)cc1 | 0% |
| Cc1cc(C)c(NS(=O)(=O)c2cccc3ccccc23)c(C)c1 | i |

Other entries:
| canonical_smiles | Mtb H37Rv |
| --- | --- |
| COC(=O)c1ccccc1NC(=O)Nc1ccc2c(c1)CCC2 | i |
| COc1c(C)cc(Br)cc1C(=O)Nc1ccccc1N1CCN(C(=O)c2ccccc2)CC1 | 4% |
| CCC(C)Cn1c(COC)nc2ccccc21 (stereo not given) | i |
| CSc1nc2ccc(S(=O)(=O)NC3CCCCC3)cc2s1 | 38% |
| Cc1ccc(Cl)cc1N=C(N)N=C(N)N | 1% |
| Clc1ccccc1OCc1nn2c(COc3ccccc3)nnc2s1 | i |
| CCC(C)c1ccc(OCC(=O)Nc2cccc(C(=O)Nc3ccc(C(=O)O)cc3)c2)cc1 (stereo not given) | i |
| O=[N+]([O-])c1ccc(CSc2nnc(C3COc4ccccc4O3)n2-c2ccccc2)cc1 (stereo not given) | 9% |
| COc1ccc(NC(=O)c2cccnc2C(=O)Nc2ccc(OC)cc2)cc1 | i |
| c1ccc(COc2cccc(CNCc3cccnc3)c2)cc1 | i |
| O=C(c1cccs1)N1CCC(N2CCOCC2)CC1 | i |
| COc1ccc(-c2cc(C(F)(F)F)nc(SCC(=O)NCc3ccco3)n2)cc1OC | 1% |
| COc1cccc(NC(=O)Nc2ccc(C)c(Cl)c2)c1 | i |
| CCC(Oc1ccc(F)cc1)C(=O)Nc1nc(-c2ccc(S(=O)(=O)N3CCCC3)cc2)cs1 (stereo not given) | i |
| O=C(CC(C(=O)O)N1CCCCC1)Nc1ccccc1 (stereo not given) | i |
| CCOc1cc(C2C(C(=O)OC)=C(C)NC3=C2C(=O)c2ccccc23)c(Br)cc1OC (stereo not given) | i |
| COc1ccc(N(CC(=O)Nc2ccc(Cl)c(C(F)(F)F)c2)S(C)(=O)=O)cc1OC | i |
| CCC(C)N1CCN(S(=O)(=O)c2ccc(Cl)cc2)CC1 (stereo not given) | i |
| COc1ccc(OC(C)C(=O)Nc2ccccc2-c2ccccc2)cc1 (stereo not given) | i |
| CCOC(=O)c1ccccc1NC(=O)C1CC1 | i |
| O=c1ccc2cc(S(=O)(=O)N3CCc4ccccc4C3)ccc2o1 | i |
| Cc1cc(OCC(=O)N2CCN(c3ccccc3F)CC2)ccc1Br | i |
| O=C(Nc1ccccc1C(=O)NC1CCCCC1)c1ccc(Br)o1 | 1% |
| COc1cc(NC(=S)NN2CCOCC2)cc(OC)c1 | i |
| O=C(c1ccccc1N(Cc1ccccc1)S(=O)(=O)c1ccccc1)N1CCOCC1 | i |
| Cc1cccc(-n2c(Cc3ccccc3)nnc2SCC(=O)Nc2ccccc2)c1 | i |
| COc1ccc(-n2c(C)ccc2C)cc1 | i |
| COc1ccc(NC(=O)Nc2cccnc2)c(OC)c1 | i |
| CCNC(=S)N1CCN(CCN2C(=O)c3cccc4cccc(c34)C2=O)CC1 | i |
| COc1ccccc1N1CCN(C(=O)c2cc(Br)ccc2Cl)CC1 | i |
| CCC(=O)N1c2ccccc2NC2=C(C(=O)CC(c3ccco3)C2)C1c1ccco1 (stereo not given) | i |
| O=C1c2cccc3cccc(c23)C(=O)N1OS(=O)(=O)c1ccc(F)cc1 | i |
| O=S(=O)(/C=C/C=C/Sc1ccccc1)c1ccccc1 | 8% |
| CC1=C(C(=O)OCc2ccccc2)C(c2c(F)cccc2Cl)NC(=O)N1 (stereo not given) | i |
| Cc1ccccc1OCC(=O)N=Nc1c(O)[nH]c2c(C)cccc12 | i |
| CCOC(=O)c1c(NC(=O)c2ccco2)sc2c1CCC(C#N)(c1ccccc1)C2 (stereo not given) | i |
| CCN(CC)C(=O)c1sc(NC(=O)c2ccc(OC)c(OC)c2)c(C(=O)OC)c1C | i |
| COc1ccc(Cl)cc1NC(=S)NC(=O)COc1ccc(Cl)cc1 | 1% |
| COC(=O)c1ccc(C(=O)OC)c(NC(=O)c2ccc(-c3cc(Cl)ccc3Cl)o2)c1 | i |
| COc1cc(C=O)cc(Br)c1OC/C=C/c1ccccc1 | i |
| O=C(Cc1cccs1)NCCC1=CCCCC1 | 1% |
| C=CCn1c(SCC(=O)Nc2nc(C)cs2)nnc1-c1cccc(C)c1 | i |
| Fc1ccccc1N1CCN(C(=S)c2ccc(Br)cc2)CC1 | 0% |
| COc1cc2c(cc1OC)-c1nnc(-c3ccc(Br)o3)n1C(C)(C)C2 | i |
| C=CCn1c2ccccc2c2nnc(SC(C)CC)nc21 (stereo not given) | 1% |
| CCc1ccccc1NC(=O)C1CCN(S(C)(=O)=O)CC1 | i |
| CCN(CC)CCOc1cccc(C(C)=O)c1 | i |
| O=C(CSCC(=O)N1c2ccccc2Sc2ccccc21)Nc1ccccc1 | i |

Copied from the entries so far for reference:
| canonical_smiles | Mtb H37Rv |
| --- | --- |
| C=CCn1c2ccccc2c2nnc(SC(C)CC)nc21 (stereo not given) | 1% |
| CCc1ccccc1NC(=O)C1CCN(S(C)(=O)=O)CC1 | i |
| CCN(CC)CCOc1cccc(C(C)=O)c1 | i |
| O=C(CSCC(=O)N1c2ccccc2Sc2ccccc21)Nc1ccccc1 | i |

Following part:
| canonical_smiles | Mtb H37Rv |
| --- | --- |
| CCn1ccc(CNC(=O)Nc2ccc(Cl)cc2Cl)n1 | i |
| COc1ccc(S(=O)(=O)Nc2ccccc2C(=O)N2CCOCC2)cc1Br | i |
| O=C(NCCCn1ccnc1)c1csc2ccccc12 | i |
| COC(=O)C1=C(C)N(c2cc(Cl)cc(Cl)c2)C(=O)C1 | 6µg/mL* |
| CCC(CC)C(=O)Nc1cccc(C(C)=O)c1 | i |
| O=C(c1ccncc1)N1CCN(CCc2ccccc2)CC1 | i |
| COc1ccc(-c2nn(C)c(=O)c3ccccc23)cc1CNC(=O)COc1ccc([N+](=O)[O-])cc1 | i |
| CCc1ccccc1OCC(=O)NCCc1ccccc1 | i |
| Cc1cc(Br)ccc1OCC(=O)NC12CC3CC(CC(C3)C1)C2 | 3% |

These rows are one share of the data; the hit share may differ from the screen's.
